TSHR agonist: qHTS Assay for Agonists of the Thyroid Stimulating Hormone Receptor; Thyrotropin receptor (Homo sapiens), P16473; AID 926, 2007; HEK293-CNG-TSHR cells (CNG channel as cAMP sensor), membrane potential dye, cAMP; 0.48% of 73,000 active; Potency, µM (top dose mostly 57.1 µM), inactives show at the top dose activation, hits mostly activators; active = well fitted activation curve of enough size with the parental cells flat; inconclusive = any curve in the parental cells; inactive = parental cells flat and receptor cells flat or falling; also: potency is read from the fitted curve at half-maximal effect; % of control where 0% means no effect; weak receptor curves with flat parental cells got no call and are not listed
Target sequence (P16473 whole entry, looked up): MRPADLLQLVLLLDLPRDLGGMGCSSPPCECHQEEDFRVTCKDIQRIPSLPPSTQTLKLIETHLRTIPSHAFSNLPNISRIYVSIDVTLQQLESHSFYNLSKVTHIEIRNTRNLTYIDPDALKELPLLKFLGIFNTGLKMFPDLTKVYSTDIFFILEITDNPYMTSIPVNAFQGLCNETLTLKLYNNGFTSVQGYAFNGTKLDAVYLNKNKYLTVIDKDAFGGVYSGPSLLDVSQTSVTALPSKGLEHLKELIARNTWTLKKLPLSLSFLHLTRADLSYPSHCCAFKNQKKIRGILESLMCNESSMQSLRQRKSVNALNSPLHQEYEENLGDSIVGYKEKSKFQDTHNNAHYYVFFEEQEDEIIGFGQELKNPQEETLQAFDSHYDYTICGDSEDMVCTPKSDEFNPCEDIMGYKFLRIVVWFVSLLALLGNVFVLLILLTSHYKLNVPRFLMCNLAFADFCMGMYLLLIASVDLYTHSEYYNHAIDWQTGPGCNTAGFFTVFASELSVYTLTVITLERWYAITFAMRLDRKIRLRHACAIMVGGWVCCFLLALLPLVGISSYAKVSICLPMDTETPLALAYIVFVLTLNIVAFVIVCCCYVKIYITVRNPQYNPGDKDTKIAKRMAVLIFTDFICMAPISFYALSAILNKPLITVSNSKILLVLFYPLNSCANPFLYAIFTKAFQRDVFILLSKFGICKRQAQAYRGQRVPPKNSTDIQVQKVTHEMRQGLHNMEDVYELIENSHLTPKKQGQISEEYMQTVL
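HEK 293 cells stably expressing TSHR and a cAMP-gated CNG channel; parental CNG-only cells as counterscreen. Cells preloaded 60 min with membrane potential dye plus 100 uM RO 20-1724, then compound 30 min; fluorescence read at 590 nm.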
A647 autofl: qHTS Assay for Spectroscopic Profiling in A647 Spectral Region; 59,000 tested, under 10 active; Compound fluorescence, A647 channel (570/671 nm), Tris buffer; max dye-equivalent concentration, M; active means above 1 µM dye equivalent; inconclusive means 0.1 to 1 µM; inactive means 0.1 µM or less;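 also: values scaled relative to a standard on each plate; highest value over a series up to 38 µM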
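Each compound's intrinsic fluorescence at 570 nm excitation and 671 nm emission is measured across its concentration series in 100 mM Tris, pH 8.0, after 15 min at room temperature, and reported relative to an A647 curve.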
A488 fluor: qHTS Assay for Spectroscopic Profiling in A488 Spectral Region; 0.1% of 59,000 active; max dye equivalency, M; compound autofluorescence, A488 spectral region, dye equivalency; stronger effect = higher value; active = above 10 nM dye equivalent; inconclusive = 1 to 10 nM; inactive = 1 nM or less; about half of its hits are not listed in these tables;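 also: highest value over a series up to 38 µM; compound alone in buffer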
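Readout is A488 dye-equivalent concentration, calibrated by a per-plate six-point Alexa 488 series. Compounds in 100 mM Tris buffer pH 8.0 were incubated 15 min at room temperature. Plates were imaged using 480 nm excitation/540 nm emission filters.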
Resorufin autofl: qHTS Assay for Spectroscopic Profiling in Resorufin Spectral Region; max dye-equivalent concentration, M; Compound fluorescence, resorufin region 547/598 nm, buffer; stronger effect = higher value; 0.04% of 59,000 active; AID 588, 2007; active = above 10 nM dye equivalent; inconclusive = 1 to 10 nM; inactive = 1 nM or less; a few of its hits are not listed in these tables; also: highest value over a series up to 38 µM
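Tris 100 mM pH 8.0; compound added, 15 min RT; CCD imager read, ex 547 nm/em 598 nm; signal normalized to resorufin standard curve (six concentrations per plate) as dye-equivalent concentration.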
AID923: qHTS Assay for Allosteric/Competitive Inhibitors of Caspase-1: Spectroscopic Profiling in AFC Spectral Region; compound fluorescence, AFC spectral region (405/520 nm); almost no hit is shown here; Potency, µM (series often up to 57.5 µM), for the others: top-dose fluorescence increase, most hits filed as activators; 1.1% of 75,000 active; AID 923, 2007; active = well fitted activation curve with a large enough effect; inconclusive = small, poorly fitted or top-dose-only effect;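 also: potency is read from the fitted curve at half-maximal effect; 0% is about no effect; scaled to a free AFC standard on each plate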
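Baseline compound fluorescence (AFC region, 405 nm ex/520 nm em) taken from the intercept of kinetic reads with 50 nM caspase-1 and 5 uM Ac-WEHD-AFC; normalized to an on-plate AFC standard curve; compounds titrated up to 57 uM.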
Starred values were filed as active, the others as inactive; i = inactive; u = inconclusive; x = not tested or not shown; [ ] = another dose, or the depositor's remark.

SMILES	TSHR agonist	A647 autofl	A488 fluor	Resorufin autofl	AID923
COC(=O)[C@@]1(Cc2ccc(F)cc2)[C@H]2c3cc(C(=O)N(C)C)n(Cc4ccc(S(C)(=O)=O)cc4)c3C[C@H]2CN1C(=O)c1ccccc1	u	x	x	x	0.9%
Cc1cccc(CNc2cc(-c3ccccc3Cl)ncn2)c1	u	2.75e-08	i	i	0.8%
CCCOC(=O)CCCCC1SCC(NC(=O)OC)C1NC(=O)OC (stereo not given)	-2.2%	1e-09	i	i	-1.8%
CC(CN1CCOCC1)OC(=O)c1ccc2c(c1)OCCO2 (stereo not given)	4.8%	3.7e-09	i	i	1.2%
O=C(CN1CCN(Cc2ccccc2Cl)C1=O)NC1CCCCCC1	u	3.5e-09	i	i	1.2%
O=C(O)c1ccc(F)c(S(=O)(=O)Nc2ccccc2Cl)c1	1.4%	5.5e-09	i	i	2.0%
Cc1csc(C(C#N)C(=O)c2cc3ccccc3o2)n1 (stereo not given)	9.3%	1.8e-08	i	i	-2.0%
O=C(OCc1nnc(-c2ccccc2)o1)c1cc(=O)c2ccccc2o1	u	3.6e-09	i	i	-0.2%
O=C(NCCCN1CCOCC1)c1ccccc1-c1ccccc1	12.3%	1e-09	i	i	1.8%
CC(C)CC(=O)N=C1SC2CS(=O)(=O)CC2N1CCc1ccccc1 (stereo not given)	1.9%	1e-09	i	i	0.6%
Cc1ccccc1C(=O)N1CCC(C(=O)Nc2ccc(F)cc2)CC1	8.1%	8.6e-09	i	i	0.7%
Cc1ccc(C(=O)NCC(C)(C)O)cc1	x	7.11e-08	i	i	x
COc1cccc(N2CC(O)=C(c3nc4ccccc4c(=O)[nH]3)C2=N)c1	8.7%	1.07e-08	i	i	-0.5%
Cc1ccc(C)c(NC(=O)CCn2nc(C)cc2C)c1	3.3%	1.41e-08	i	i	-0.7%
O=c1c2[nH]c3ccc(F)cc3c2ncn1CCCN1CCOCC1	-4.7%	1e-09	i	i	0.0%
C[C@@]1(C(NC(=O)Cc2ccc(C(F)(F)F)cc2)c2ccc(-c3ccccc3)cc2)C[C@H]1C1CCCCC1 (stereo not given in full)	-1.5%	x	x	x	1.8%
CCOC(=O)N1CCC(NC(=O)c2cc3c(C)nc4ccccc4c3o2)CC1	-1.1%	x	x	x	0.8%
COc1cc(C(=O)N(CCCO)Cc2cc3ccc(C)c(C)c3[nH]c2=O)cc(OC)c1OC	1.1%	1.21e-08	i	i	-0.8%
CCOc1ccccc1NC(=O)C1Cc2ccccc2CN1S(C)(=O)=O (stereo not given)	6.3%	3.2e-09	i	i	-2.9%
N=C(N)c1ccc(/C=C\c2ccc(C(=N)N)cc2)cc1	2.0%[11.4 µM]	2.03e-08	i	i	1.2%[11.5 µM]

In the list so far, three have an NH in an aromatic ring.
SMILES	TSHR agonist	A647 autofl	A488 fluor	Resorufin autofl	AID923
COc1cccc(N2CC(O)=C(c3nc4ccccc4c(=O)[nH]3)C2=N)c1	8.7%	1.07e-08	i	i	-0.5%
O=c1c2[nH]c3ccc(F)cc3c2ncn1CCCN1CCOCC1	-4.7%	1e-09	i	i	0.0%
COc1cc(C(=O)N(CCCO)Cc2cc3ccc(C)c(C)c3[nH]c2=O)cc(OC)c1OC	1.1%	1.21e-08	i	i	-0.8%

Other compounds
SMILES	TSHR agonist	A647 autofl	A488 fluor	Resorufin autofl	AID923
CCOC(=O)Cn1c(=O)c2c(nc3n2CCCCN3c2ccc(OCC)cc2)n(C)c1=O	-1.8%	3.7e-09	i	i	3.7%
O=C(c1cn(-c2ccccc2)nc1-c1cccnc1)N1CCCCC1	9.6%	x	x	x	4.8%
COc1ccc(C(=O)NC(=O)Nc2cc(C)ccn2)cc1	-2.6%	1e-09	i	i	-0.7%
Cc1cccc(N2CCN(S(=O)(=O)c3cnc[nH]3)CC2)c1C	-0.1%	x	x	x	2.0%
CCn1c(SCc2nc(-c3ccccc3)no2)nc2ccccc21	31.6µM*	x	x	x	1.1%
Cc1ccc(S(=O)(=O)N2C3C=CC(C3)C2C(=O)O)cc1 (stereo not given)	-3.4%	x	x	x	-1.5%
CCN1CCN(Cc2nc3c(c(=O)n(C)c(=O)n3C)n2Cc2cccc3ccccc23)CC1	4.8%	4.64e-08	i	i	0.7%
COC(=O)C1=C(C)N=C2SC(C)C(=O)N2C1/C=C/c1ccccc1OC (stereo not given)	x	2.04e-08	i	i	x
O=C(Cn1cc2c(n1)CCCCC2)N1CCc2ccccc21	u	x	x	x	-0.5%
Cc1nc(-c2ccc(C(=O)O)cc2)cs1	1.8%	1e-09	i	i	-0.1%
Cn1c(CC(=O)Nc2ccccc2)nnc1SCC(=O)c1ccccc1	-0.3%	3.4e-09	i	i	0.1%
CCOCCCNC(=O)C(NC(=O)c1ccc(=O)[nH]c1)c1ccccc1 (stereo not given)	-4.1%	1e-09	i	i	-0.1%
Cc1cc(C)n(-c2nnc3n2N=C(c2ccccc2)CS3)n1	9.3%	2.77e-08	i	i	-1.2%
N#Cc1nc(-c2ccccc2F)oc1NCCN1CCOCC1	-0.1%	x	x	x	0.3%
O=c1cc(-c2ccco2)nc(-c2cccs2)o1	x	1e-09	i	i	x
O=C(/C=C/Nc1ccccc1Br)c1ccccn1	-2.9%	x	x	x	6.1%
Cc1cc(C)nc(-n2nc(C)cc2NC(=O)CN2CCC(C)CC2)n1	u	8.8e-09	i	i	-1.0%
COc1ccc(-c2noc(CCC(=O)Nc3nc4ccccc4s3)n2)cc1	-1.4%	2.4e-09	i	i	-0.2%
CCOC(=O)CNC(=O)c1cc(-c2ccc3c(c2)OCCO3)oc1C	2.3%	5.5e-09	u	i	5.3%
Cc1cnc(-c2nnc(N(C)C(=O)C3CCCO3)s2)cn1 (stereo not given)	-5.0%	1.44e-08	i	i	1.9%
Cc1noc(C)c1COC(=O)c1cc2c3ccccc3n(C)c2s1	u	4.91e-08	i	i	1.9%
Cc1ccc(CNC(=O)C2CCN(S(=O)(=O)N3CCOCC3)CC2)cc1	-2.1%[11.4 µM]	3.27e-08	i	i	-0.2%
COc1cc(-c2noc(-c3cccs3)n2)cc(OC)c1OC	19.3%	8.5e-09	i	i	2.9%
COc1ccccc1CNc1cc(-c2c(C)noc2C)ncn1	u	2.14e-08	i	i	-1.2%
CCn1c(NCc2cccs2)nc2ccccc21	8.9%	1e-09	i	i	-0.1%
C[C@@H]1C[C@@H]2[C@H]3CCC4=CC(=O)C=C[C@]4(C)[C@]3(Cl)[C@@H](O)C[C@@]2(C)[C@@]1(O)C(=O)CO	6.7%	5.19e-08	i	i	-2.0%
O=C1Nc2ccccc2OC1CC(=O)N1CCOCC1 (stereo not given)	-8.4%	x	x	x	-1.0%
CCOc1ccc(NCc2nnc(SCC(=O)Nc3cc(C)on3)n2-c2ccccc2OC)cc1	-15.2%	1.7e-08	i	i	-0.4%
COCCNS(=O)(=O)c1ccc(SC)cc1	9.3%	3.92e-08	i	i	-0.5%
Cc1ccc(-c2c(C(=O)N3CCOCC3)oc(=O)c3ccccc23)cc1	27.5%	x	x	x	4.0%
Cc1c(O)c(=O)c2ccccc2n1C	-1.2%[11.4 µM]	x	x	x	-2.5%[11.5 µM]
c1ccc(NC2=Nc3ccccc3CS2)cc1	4.5%	1.82e-08	i	i	-0.9%
CCCCN(CC)C(=O)c1cccc(Cl)c1	9.0%	7.7e-09	i	i	1.9%
Cc1ccc2nc(NC(=O)CSc3nc4c(c(=O)n3C)SC(C)C4)sc2c1 (stereo not given)	-0.5%	5.4e-09	i	i	1.3%
CCc1ccc(NC(=O)CCNS(=O)(=O)c2cccc3nonc23)cc1	2.7%	1e-09	i	i	-0.6%
CCc1ccc(N2CSC3=C(C#N)C(c4cccs4)CC(=O)N3C2)cc1 (stereo not given)	12.2%	1e-09	i	i	2.3%
CC(=O)NC(CCS(C)(=O)=O)C(=O)Nc1ccc(C)c(F)c1 (stereo not given)	0.6%	1e-09	i	i	-1.1%
COC(=O)CSc1nc2ncc(Cl)cc2[nH]1	-11.4%	4.1e-09	i	i	2.2%
O=C(O)C1C2C=CC(C2)C1C(=O)OC1CC2CCC1C2 (stereo not given)	0.7%[11.4 µM]	x	x	x	0.5%
CN1CCN(CCCNC(=O)C2CCN(c3nnc(-n4cccc4)s3)CC2)CC1	-0.8%	4.6e-09	i	i	-0.3%

Single values from the results shown:
O=C1Nc2ccccc2OC1CC(=O)N1CCOCC1 (stereo not given) in TSHR agonist → -8.4%
CCc1ccc(N2CSC3=C(C#N)C(c4cccs4)CC(=O)N3C2)cc1 (stereo not given) in A647 autofl → 1e-09

(next part)
SMILES	TSHR agonist	A647 autofl	A488 fluor	Resorufin autofl	AID923
CCOc1cc(C)c(C(C)C)cc1S(=O)(=O)N1CCOCC1	u	7.4e-09	i	i	0.2%
Nc1ccc2c(c1)C(=O)N(CCCC(=O)O)C2=O	6.3%[11.4 µM]	3.05e-08	i	i	19.5%
Cc1cnc(CNc2ncncc2-c2ccccc2C#N)cn1	2.2%	1e-09	i	i	2.7%
CC1(C)S[C@@H]2[C@H](NC(=O)C3(N)CCCCC3)C(=O)N2[C@H]1C(=O)O	5.8%[25.6 µM]	4.87e-08	i	i	2.2%[25.7 µM]
Cc1cc(C)c(C)c(S(=O)(=O)NCC(=O)N2CCCC2)c1C	8.2%	1.58e-08	i	i	-1.4%
COC(=O)/C=c1/s/c(=C(\C#N)C(=O)NCc2ccco2)n(-c2ccc(C)cc2)c1=O	-6.2%	2.84e-08	i	i	0.6%
COC(=O)c1c(-c2cccc(OC)c2)csc1N	-2.0%	x	x	x	3.0%
CC(=O)NCCn1c(SCC#N)nc2ccccc2c1=O	5.3%	5.4e-09	i	i	-0.5%
CS(=O)(=O)N1CCN(C(=O)c2ccccc2F)CC1	u	1.5e-09	i	i	0.3%
S=c1[nH]nc(-c2ccco2)n1-c1cccc2ccccc12	2.4%	5.6e-09	i	i	0.4%
COCCCNC(=O)Cn1nnc(-c2ccccc2NC(=O)c2ccccc2F)n1	u	4.8e-09	i	i	-2.3%
CCc1nnc(NC(=O)CSc2nc3cccnc3n2C2CCCCC2)s1	17.9%	1e-09	i	i	1.7%
COc1ccc(-c2cc(C(F)(F)F)n3nc(C(=O)N4CCOCC4)nc3n2)cc1	-0.7%	6.2e-09	i	i	8.2%
CCC(CO)NCc1ccc2c(c1)n(C)c(=O)n2C (stereo not given)	-1.3%	4.4e-09	i	i	-3.1%
CC1CCN(S(=O)(=O)N2CCC(C(=O)NCc3cccs3)CC2)CC1	-5.1%	3.8e-09	i	i	0.1%
C=CCOc1ccccc1C1C2=C(CC(C)(C)CC2=O)Nc2c1c(=O)n(C)c(=O)n2C (stereo not given)	7.5%	3.87e-08	i	i	9.8%
Cc1ccc(N2CCN(C(=O)C3CCN(S(=O)(=O)c4cccc5nsnc45)CC3)CC2C)cc1 (stereo not given)	-9.8%	2.3e-09	i	i	0.3%
O=C(CSc1nc2ccccc2[nH]1)Nc1ccc2c(c1)OCCO2	x	2.26e-08	i	i	-1.1%
O=c1ccsn1Cc1ccccc1	-10.3%	4.21e-08	i	i	1.3%
O=C1OCCC1Sc1nc(-c2ccccc2)cs1 (stereo not given)	-7.2%	1e-09	i	i	1.0%
Cc1cccc(C)c1NC(=O)CNc1ccccc1	11.0%	1.1e-09	i	i	0.8%
CCN(C(=O)COC(=O)c1cc(C)n(-c2ccc(F)cc2)c1C)C1CCS(=O)(=O)C1 (stereo not given)	8.3%	9.6e-09	i	i	-1.2%
CCOc1ccc(C(C)=O)cc1N1C(=O)C2C3C=CC(C3=C(C)C)C2C1=O (stereo not given)	-1.3%	1e-09	i	i	0.3%
Cc1ccc(C(N)=O)cc1S(=O)(=O)Nc1cccc(C)c1C	-4.6%	1e-09	i	i	-0.2%
Cc1ccc(-c2c3c(=O)n(C)c(=O)n(C)c3cn2N2CCOCC2)cc1	-2.6%	5.9e-09	i	i	0.8%

Screening data as filed in PubChem BioAssay.

The list is partial. The share of hits here may be higher or lower than overall.
